Screening data as filed in PubChem BioAssay.
eIF4H FP inh – inhibitors of RNA binding by human eIF4H; Q15056; eIF4H fluorescence polarization binding assay; inhibition, % at 35 µM; actives 0.94% (n = 290,000);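 active means 50% or more with normal probe brightness, or confirmed in later tests; about a fifth of its hits are not listed in these tables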;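 further: calls also rest on retests at 20 µM and on dose response follow-up; 0% = protein and probe with vehicle and 100% = probe without protein; strong numbers were not always called active; many hits fall short of the cut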
Yeast UUG start – alters start codon recognition fidelity in yeast. activity score, % at 18.7 µM. AID 602363. actives 0.13% (n = 350,000). S. cerevisiae UUG-firefly luciferase reporter, luminescence/redox ratio;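 active means replicate mean at a twofold rise or more, about +100% in these data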;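 further: firefly luciferase made from a UUG start codon reports start codon fidelity; reporter light over untreated wells divided by growth signal over untreated wells; some hits fall short of that in this replicate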
CSC inhib – blocks cancer stem cells. cancer stem cell-like cells viability, luminescence. inhibition, % at 7.5 µM. actives 1.1% (n = 300,000). AID 2717;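 active means mean at 75% or more and at least half the replicates too; tested in HMLE shEcad cells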;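 further: 0% = median of negative and 100% = median of positive control wells; the first replicate is given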
Env fusion inh – inhibitors of HIV Env-mediated cell fusion. inhibition, % at 12.3 µM. actives 1.1% (n = 360,000). HeLa-JRFL Env/CEM21 cell fusion, luciferase;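 active means mean replicate inhibition score of at least 50 and every replicate individually at or above 50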;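 further: 0% = plate neutral controls and 100% = maraviroc near 300 nM; one replicate is shown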
MT1-MMP act inh – inhibitors of human MT1-MMP activation; P50281; GFP/RFP ratio change, % at 20 µM; HT1080 RFP-PRO-GFP cells, GFP/RFP ratio fluorescence, overnight; percent of plate control window, DMSO zero; actives 0.061% (n = 360,000);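 active means GFP/RFP ratio change of at least 30% with cell ATP level not reduced by more than half and red fluorescence within 50% of control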; further: strong numbers were not always called active
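Assay system: HT1080 RFP-PRO-GFP cells | Dosing: 20 µM single dose, 1% DMSO | Incubation: Cells overnight before dosing, compound overnight, 37 °C, 5% CO2 | Evaluation: GFP/RFP fluorescence ratio | Control set: DMSO-only wells and HT1080 RFP-L50D-GFP cell wells as references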
Rce1 inh – blocks yeast Ras-converting enzyme. Q03530. yeast membranes, quenched prenylated peptide cleavage fluorescence. calls only. actives 0.27% (n = 290,000). AID 2563;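 active means fall in fluorescence gain of 50% or more versus controls, with final raw signal at or below 3038400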;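 further: plate controls were neutral control wells for no effect and wells lacking membranes for full effect; tested at 10 µM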
PABP FP inh – blocks human PABP binding to poly(A) RNA; fluorescence polarization; inhibition, % at 35 µM; AID 2014; actives 1% (n = 290,000); P11940;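 active means 50% or more with normal probe brightness, or confirmed in later tests; about a fifth of its hits are not listed in these tables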;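 further: calls also rest on retests at 20 µM and on dose response follow-up; controls were probe without protein and protein plus probe with vehicle; some compounds called inactive have numbers as strong as hits; many hits fall short of the cut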
Target sequence (P11940 whole entry, looked up): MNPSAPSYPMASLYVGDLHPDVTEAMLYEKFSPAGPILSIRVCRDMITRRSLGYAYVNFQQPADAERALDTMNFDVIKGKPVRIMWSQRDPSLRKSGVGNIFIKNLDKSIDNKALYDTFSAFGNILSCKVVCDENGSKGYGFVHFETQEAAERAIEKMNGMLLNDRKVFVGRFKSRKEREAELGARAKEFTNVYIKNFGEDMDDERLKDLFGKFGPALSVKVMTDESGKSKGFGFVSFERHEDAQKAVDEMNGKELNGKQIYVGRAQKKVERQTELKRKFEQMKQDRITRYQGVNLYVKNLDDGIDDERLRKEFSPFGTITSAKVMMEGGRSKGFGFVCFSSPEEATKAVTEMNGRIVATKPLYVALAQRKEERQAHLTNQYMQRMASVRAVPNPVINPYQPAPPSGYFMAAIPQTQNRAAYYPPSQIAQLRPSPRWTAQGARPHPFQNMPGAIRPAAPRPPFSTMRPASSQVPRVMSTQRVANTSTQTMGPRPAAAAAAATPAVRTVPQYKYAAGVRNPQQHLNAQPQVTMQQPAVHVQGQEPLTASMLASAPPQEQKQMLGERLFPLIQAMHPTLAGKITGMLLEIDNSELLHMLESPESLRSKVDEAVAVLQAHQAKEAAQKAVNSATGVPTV
MT1-MMP act inh RFP – further read-out of MT1-MMP act inh, marked with its call; RFP signal change, %; measured here: RFP expression control read;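 0 = vehicle wells; hits needed this value within 50% of zero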
The depositor's hits bear a star; i = inactive; . = no result given; & = joins results of further samples. No enrichment for hits (roughly 2.9% active in at least one column).

mol | MT1-MMP act inh | MT1-MMP act inh RFP | Rce1 inh | CSC inhib | PABP FP inh | Env fusion inh | eIF4H FP inh | Yeast UUG start
CCOC1(OCC)N=C(N)C2(C#N)C(c3cccc(OC)c3OC)C12C#N (stereo unspecified) | 3 | 11 | i | -4 | -9 | . | 5 | -13
Cc1cccc(-n2ncc3c(NC(C)C)ncnc32)c1 | -1 | 0 | i | 3 | 11 | -110 | -7 | -18
Cc1cc(C(=O)NCc2nc(-c3ccccc3)no2)ccc1[N+](=O)[O-] | -3 | -1 | i | 1 | -13 | 19 | -4 | .
Cc1ccc2c(Cl)cc(Cl)c(OCC(=O)N3CCOCC3)c2n1 | 0 | 2 | . | -7 | . | . | . | -16
COCCn1c(SCC(=O)NCCc2ccccc2)nnc1-c1ccco1 | -5 | -3 | i | -2 | 14 | -13 | 9 | -14
CCc1nnc(NC(=O)c2ccc(-c3ccc([N+](=O)[O-])cc3Cl)o2)s1 | 4 | -3 | i | 10 | -12 | -2 | 3 | .
Fc1ccc(-c2nc3c(-c4ccccc4)cnn3cc2CCN2CCOCC2)cc1 | -1 | -4 | i | -8 | -4 | 4 | -2 | .
COc1ccc(OC)c(C(O)c2ncc(-c3ccc(C(F)(F)F)cc3)[nH]2)c1 (stereo unspecified) | 2 | 2 | . | . | . | 2 | . | -19

The closing 3 entries of the section above lead into the next.
mol | MT1-MMP act inh | MT1-MMP act inh RFP | Rce1 inh | CSC inhib | PABP FP inh | Env fusion inh | eIF4H FP inh | Yeast UUG start
CCc1nnc(NC(=O)c2ccc(-c3ccc([N+](=O)[O-])cc3Cl)o2)s1 | 4 | -3 | i | 10 | -12 | -2 | 3 | .
Fc1ccc(-c2nc3c(-c4ccccc4)cnn3cc2CCN2CCOCC2)cc1 | -1 | -4 | i | -8 | -4 | 4 | -2 | .
COc1ccc(OC)c(C(O)c2ncc(-c3ccc(C(F)(F)F)cc3)[nH]2)c1 (stereo unspecified) | 2 | 2 | . | . | . | 2 | . | -19
N=c1c2c(-c3ccccc3)c(-c3ccccc3)n(Cc3ccco3)c2ncn1Cc1ccco1 | -20 | -26 | i | 61 | -25 | . | 3 | 12
CCn1nnnc1SCC(=O)NNC(=O)C1CCCCC1 | -2 | 3 | i | -12 | -15 | -19 | 2 | -6
O=C(CN1CCOCC1)NC1C2CC3CC(C2)CC1C3 (stereo unspecified) | 3 | 3 | i | -4 | 12 | 23 | -2 | -13
COc1ccc(-c2cc(C(=O)NCc3cccc(C(F)(F)F)c3)[nH]n2)c(C)c1 | 3 | 5 | . | . | . | 4 | . | -11
Cc1ccc(NC(=O)c2ccc(CSc3ncnc4nc[nH]c34)cc2)c(C)c1 | -1 | -3 | i | 13 | -5 | . | 4 | 8
O=C1c2oc3ccccc3c(=O)c2C(c2cccc(Br)c2)N1Cc1ccco1 (stereo unspecified) | -3 | -6 | i | -3 | 5 | 55* | -2 | .
CCc1cccc(NC(=O)CCCSc2nc3ccccc3[nH]2)c1 | 2 | -5 | i | 0 | -5 | 18 | 4 | .
COc1ccc(C(=O)Nc2ccc(C(=O)O)cc2NC(=O)c2ccc(OC)cc2)cc1 | -3 | 4 | i | -15 | 1 | -7 | -2 | -4

Exported as labelled records: part of the list above.
SMILES: O=C(CN1CCOCC1)NC1C2CC3CC(C2)CC1C3 (stereo unspecified)
  MT1-MMP act inh: 3 | MT1-MMP act inh RFP: 3 | Rce1 inh: i | CSC inhib: -4 | PABP FP inh: 12 | Env fusion inh: 23 | eIF4H FP inh: -2 | Yeast UUG start: -13

SMILES: COc1ccc(-c2cc(C(=O)NCc3cccc(C(F)(F)F)c3)[nH]n2)c(C)c1
  MT1-MMP act inh: 3 | MT1-MMP act inh RFP: 5 | Rce1 inh: . | CSC inhib: . | PABP FP inh: . | Env fusion inh: 4 | eIF4H FP inh: . | Yeast UUG start: -11

SMILES: Cc1ccc(NC(=O)c2ccc(CSc3ncnc4nc[nH]c34)cc2)c(C)c1
  MT1-MMP act inh: -1 | MT1-MMP act inh RFP: -3 | Rce1 inh: i | CSC inhib: 13 | PABP FP inh: -5 | Env fusion inh: . | eIF4H FP inh: 4 | Yeast UUG start: 8

Continued.
mol | MT1-MMP act inh | MT1-MMP act inh RFP | Rce1 inh | CSC inhib | PABP FP inh | Env fusion inh | eIF4H FP inh | Yeast UUG start
Nc1nnc(CC(=O)NCc2ccccc2)s1 | -2 | 1 | i | -9 | -4 | . | -1 | -2
O=C(Nc1cccs1)Nc1ccccc1Br | . | . | i | . | -2 | 16 | 18 | .
COc1ccccc1NC(=O)C(=O)N1N=C(C(C)C)CC1(O)C(F)(F)F (stereo unspecified) | 4 | 5 | i | -7 | 7 | . | 10 | -22
CCCCN1C(=O)c2cccc3cc(O)cc(c23)C1=O | -31 | -4 | i | 7 | . | -55 | . | -9
CN(CC(=O)Nc1cccc(F)c1)C(=O)CC1CCCCC1 | 0 | -2 | i | -11 | . | -3 | . | 8
CCOP(=O)(OCC)c1nc(-c2ccccc2)oc1NCc1ccccc1 | -4 | -3 | i | 19 | -10 | 10 | 7 | .
C(=N\Nc1nc(N2CCCC2)nc(N2CCCC2)n1)/c1ccncc1 | 5 | 6 | i | -5 | -8 | 22 | -13 | .
CCOC(=O)N1CCN(CC(O)COc2ccc3c(c2)CCC3)CC1 (stereo unspecified) | -1 | 3 | i | -9 | -4 | 1 | 5 | -3
CCN(CC)CCN(C(=O)c1ccc(S(=O)(=O)N2CCCCC2)cc1)c1nc2cc3c(cc2s1)OCO3 | 5 | 6 | i | -11 | -16 | . | -18 | .
O=C(O)C1CC(=O)N(Cc2ccccc2)C1 (stereo unspecified) | 4 | 8 | i | 2 | -3 | -17 | -1 | .
O=C(CS(=O)(=O)Cc1ccccc1)Nc1nnc(C(F)(F)F)s1 | 5 | 6 | i | -1 | 9 | 6 | -2 | -18
COc1cc2ccccc2cc1C(=O)N1CCCC1 | -1 | 0 | i | . | 0 | 7 | -5 | -1
COc1ccccc1CNC(=O)CCC(=O)N1CC(C)Sc2ccccc21 (stereo unspecified) | -28 | -16 | i | . | -4 | 13 | 2 | -5
Cc1c(C(=O)NC2CCCCC2)oc2ccccc12 | -1 | -4 | i | 7 | 6 | -19 | -4 | -16
C1=C[C@H]2CC[C@@H]1N(c1ccccc1)O2 | 5 | 10 | . | . | . | -50 | . | -9
O=C(Nc1nncs1)C1COc2ccccc2O1 (stereo unspecified) | 3 | 2 | i | . | -2 | 8 | -13 | -6

Structures listed above marked active in Env fusion inh:
canonical_smiles	MT1-MMP act inh	MT1-MMP act inh RFP	Rce1 inh	Env fusion inh	Yeast UUG start
O=C1c2oc3ccccc3c(=O)c2C(c2cccc(Br)c2)N1Cc1ccco1 (stereo unspecified)	-3	-6	i	55*	.

Going on with the list:
mol | MT1-MMP act inh | MT1-MMP act inh RFP | Rce1 inh | CSC inhib | PABP FP inh | Env fusion inh | eIF4H FP inh | Yeast UUG start
OCc1cn(-c2ccc(Cl)cc2)nn1 | -2 | -3 | i | 13 | -4 | 13 | 2 | -15
COC(=O)c1ccc(NC(=O)CSc2nncn2-c2ccccn2)cc1 | 0 | -2 | i | -25 | -1 | 6 | 0 | -19
Cc1nc2ccccc2c(=O)n1NC(=O)/C=C/c1ccccc1Cl | -3 | -2 | i | 9 | -6 | 5 | -12 | 0
Cc1ccc(N(CC(O)Cn2c3ccccc3c3ccccc32)S(C)(=O)=O)cc1 (stereo unspecified) | -1 | -2 | i | 36 | 11 | . | 7 | -11
COc1ccc(C(=O)Oc2ccc3ccc(=O)oc3c2)cc1 | 1 | 1 | i | -1 | -21 | 3 | -3 | -7
Cc1ccccc1S(=O)(=O)NC(=O)C1(C)CCN1C(=O)c1cccc2ccccc12 (stereo unspecified) | 4 | 2 | . | . | . | -19 | . | 11
CN(C(=O)c1ccncc1)C1CCS(=O)(=O)C1 (stereo unspecified) | 3 | 0 | i | 5 | 8 | . | 9 | -17
O=C(O)c1cccc(N2C(=O)c3cccc(Oc4ccc(Cl)cc4)c3C2=O)c1 | 1 | 5 | i | -6 | 2 | -51 | 4 | .
O=C(OCCN1CCOCC1)c1cccnc1 | 0&1 | 4&2 | i | -8&-15 | 1&12 | . | 0&-4 | -9&-18
CN(C)S(=O)(=O)c1ccc(-c2csnn2)s1 | 7 | 4 | i | 0 | 0 | . | -9 | -16
CCSc1nnc(Cc2cc(=O)[nH]c(=O)[nH]2)n1-c1ccc(F)cc1 | -2 | 0 | i | -4 | -1 | 0 | 7 | -8
CCN1CCCC1CN(Cc1cc2ccc(C)c(C)c2[nH]c1=O)C(=O)Nc1ccccc1OC (stereo unspecified) | 0 | 7 | i | -12 | 4 | . | -5 | 5
CCOc1ccc(N2C(=O)C3C4C=CC(CC4)C3C2=O)c([N+](=O)[O-])c1 (stereo unspecified) | 3 | 7 | i | -1 | 2 | 14 | -1 | -9
Nc1cc(N)nc(SCC(=O)Nc2ccc3c(c2)OCCCO3)n1 | . | . | i | 6 | 0 | -130 | -6 | -9
COc1ccc(NC2CCCN(C(=O)CCOc3ccccc3)C2)cc1 (stereo unspecified) | -2 | 1 | i | -11 | -4 | 3 | -14 | -4
CN(C(=O)c1ccc(NC(=O)Cc2cccc(NC(=O)C3CCN(C(=O)C4CCC4)CC3)c2)cc1)C1CC1 | 0 | 3 | . | . | . | -16 | . | -10
Cc1ccccc1NC(=O)Cc1nnc(SCC(=O)NC2CCCC2)n1C | -3 | -1 | i | -7 | -5 | -18 | -4 | -3
O=C(Nc1ccccc1)OCCCCCOC(=O)Nc1ccccc1 | -2 | 0 | i | 8 | 2 | 6 | -7 | -12
O=c1oc(-c2ccccc2)nc2ccsc12 | -5 | 1 | i | . | -4 | . | -3 | -15
COc1ccc(-n2c(COc3ccc4ccccc4c3)nnc2SCC(=O)NCc2ccco2)cc1 | 4 | -2 | i | 8 | 2 | . | -7 | -5
COC(=O)c1ccc(C(=O)OC)c(-n2c(=O)c3ccccc3c3ccccc3c2=O)c1 | 3 | -2 | i | 30 | -14 | -39 | -8 | -26
CCCC(=O)n1nc(-c2ccccc2)nc1N | 9 | 4 | i | 10 | 2 | -28 | -8 | -4
CC(C)(C)c1cc[n+](-c2[nH]c(=O)sc2/C=N/N=C(\[O-])c2ccccc2)cc1 | -1 | 2 | i | -8 | 18 | -10 | 11 | -14
O=C(O)c1ccc2oc(SCC(=O)N3CCCCC3)nc2c1 | 2 | 8 | i | -2 | 8 | -136 | 0 | .
CCOc1ccccc1NC(=O)C1CCN(c2ccc(S(=O)(=O)N3CCCC3)cc2)CC1 | -1 | -5 | i | . | 1 | . | -4 | 5
Cc1ccc(C2CC(c3cccc(NS(C)(=O)=O)c3)=NN2S(C)(=O)=O)cc1 (stereo unspecified) | -2 | 1 | i | 1 | -6 | -8 | 2 | -14
CC(C)(C)C(=O)C(Cl)C(=O)Nc1ccccc1 (stereo unspecified) | 0 | 4 | i | -10 | -5 | -4 | -5 | .
CCOC(=O)Cc1csc(NC(=O)CSc2nc(=O)[nH]c3c2CCCC3)n1 | 8 | -5 | i | -9 | . | -14 | . | 20
CSCCC(NC(=O)c1ccc([N+](=O)[O-])cc1Cl)C(=O)OCC(=O)N(C)C (stereo unspecified) | -7 | -3 | i | . | -3 | . | 6 | .
COC(=O)c1c(-c2ccc(S(C)(=O)=O)cc2)sc2cc(OC)ccc12 | 2 | -4 | . | 19 | . | -82 | . | -22
CN(CC(=O)Nc1ccc(F)cc1)CC(=O)N(C)C1(C#N)CCCCC1 | -2 | 0 | . | -21 | . | . | . | -15
O=C(Cc1csc(-c2ccccc2)n1)Nc1ccc(C(F)(F)F)cc1 | 3 | 0 | i | 7 | 1 | 3 | -10 | -7
